AID923 = qHTS Assay for Allosteric/Competitive Inhibitors of Caspase-1: Spectroscopic Profiling in AFC Spectral Region. compound fluorescence, AFC spectral region (405/520 nm); almost no hit is shown here. Potency, µM (titrated, usually from 57.5 µM), inactives show at the top dose fluorescence increase, usual class: activators. 75,000 compounds, 1.1% hits. AID 923, 2007; active = well fitted activation curve with a large enough effect; inconclusive = small, poorly fitted or top-dose-only effect;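 note: potency is the fitted concentration of half-maximal effect; 0% is about no effect; scaled to a free AFC standard on each plate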
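Compound autofluorescence profiled at 405 nm ex/520 nm em during kinetic caspase 1 run (50 nM enzyme, 5 uM Ac-WEHD-AFC, HEPES pH 7.5, 10 mM DTT). Titration up to 57 uM; baseline from regression intercept, normalized to AFC standard curve.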
TSHR agonist = qHTS Assay for Agonists of the Thyroid Stimulating Hormone Receptor | Thyrotropin receptor (Homo sapiens), P16473 | HEK293-CNG-TSHR cells (CNG channel as cAMP sensor), membrane potential dye, cAMP | Potency, µM (doses to about 57.1 µM), inactives show top-dose activation, usual class: activators | 73,000 compounds, 0.48% hits | AID 926, 2007; active = well fitted activation curve of enough size with the parental cells flat; inconclusive = any curve in the parental cells; inactive = parental cells flat and receptor cells flat or falling; note: potency is the fitted concentration of half-maximal effect; % of control where 0% means no effect; weak receptor curves with flat parental cells got no call and are not listed
Target sequence (P16473 whole entry, looked up): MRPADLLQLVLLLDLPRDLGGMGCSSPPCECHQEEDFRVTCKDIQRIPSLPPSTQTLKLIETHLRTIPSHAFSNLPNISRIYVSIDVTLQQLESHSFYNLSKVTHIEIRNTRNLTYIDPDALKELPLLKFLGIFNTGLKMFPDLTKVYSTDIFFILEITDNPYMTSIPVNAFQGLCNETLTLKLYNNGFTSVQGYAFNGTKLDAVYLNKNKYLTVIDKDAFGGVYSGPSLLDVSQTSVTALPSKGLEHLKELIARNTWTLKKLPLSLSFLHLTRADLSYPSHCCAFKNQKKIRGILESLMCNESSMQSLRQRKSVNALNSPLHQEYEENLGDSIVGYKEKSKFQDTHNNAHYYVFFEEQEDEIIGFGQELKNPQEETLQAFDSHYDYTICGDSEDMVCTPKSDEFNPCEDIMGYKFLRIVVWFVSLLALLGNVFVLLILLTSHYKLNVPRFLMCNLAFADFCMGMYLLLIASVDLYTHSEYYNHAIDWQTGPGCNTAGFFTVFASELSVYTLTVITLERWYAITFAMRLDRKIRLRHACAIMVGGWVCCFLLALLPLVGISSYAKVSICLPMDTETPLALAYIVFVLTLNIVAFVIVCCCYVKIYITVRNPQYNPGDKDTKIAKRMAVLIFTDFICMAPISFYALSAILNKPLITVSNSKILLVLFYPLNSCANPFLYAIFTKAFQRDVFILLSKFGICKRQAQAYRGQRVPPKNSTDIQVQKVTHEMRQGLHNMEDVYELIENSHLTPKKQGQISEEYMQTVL
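cAMP rise detected as CNG-channel membrane depolarization by fluorescent dye (emission 590 nm), 30 min after compound, following 60 min dye loading containing 100 uM RO 20-1724 at room temperature. Cells: TSHR/CNG HEK 293, with parental CNG HEK 293 as control.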
Resorufin fluor = qHTS Assay for Spectroscopic Profiling in Resorufin Spectral Region; max dye-equivalent concentration, M; Compound fluorescence, resorufin region 547/598 nm, buffer; stronger effect = higher value; 59,000 compounds, 0.04% hits; active = above 10 nM dye equivalent; inconclusive = 1 to 10 nM; inactive = 1 nM or less; a few of its hits are not listed in these tables; note: highest value over a series up to 38 µM
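Dye-equivalent concentration values derive from comparing each well's 547/598 nm fluorescence against resorufin standards included on every plate. Incubation was 15 min at room temperature in 100 mM Tris, pH 8.0.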
A647 autofl = qHTS Assay for Spectroscopic Profiling in A647 Spectral Region; 59,000 tested, under 10 active; AID 592, 2007; max dye-equivalent concentration, M; Compound fluorescence, A647 channel (570/671 nm), Tris buffer; active means above 1 µM dye equivalent; inconclusive means 0.1 to 1 µM; inactive means 0.1 µM or less;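 note: values scaled relative to a standard on each plate; highest value over a series up to 38 µM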
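Compound fluorescence was measured in 100 mM Tris buffer, pH 8.0, after 15 min at room temperature, using 570 nm excitation and 671 nm emission filters. Signal was normalized to a per-plate Alexa 647 standard curve and expressed as dye-equivalent concentration at each compound concentration.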
A488 fluor = qHTS Assay for Spectroscopic Profiling in A488 Spectral Region; max dye equivalency, M; AID 591, 2007; 59,000 compounds, 0.1% hits; compound autofluorescence, A488 spectral region, dye equivalency; stronger effect = higher value; active = above 10 nM dye equivalent; inconclusive = 1 to 10 nM; inactive = 1 nM or less; about half of its hits are not listed in these tables;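 note: highest value over a series up to 38 µM; compound alone in buffer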
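Readout is A488 dye-equivalent concentration, calibrated by a per-plate six-point Alexa 488 series. Compounds in 100 mM Tris buffer pH 8.0 were incubated 15 min at room temperature. Plates were imaged using 480 nm excitation/540 nm emission filters.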
* hit, by the source's call; i = inactive; ? = inconclusive; . = not tested or not shown; & = joins results of further samples; [ ] = remark or other dose. The list is partial; the hit share may differ from the screen's.

SMILES | AID923 | A488 fluor | TSHR agonist | A647 autofl | Resorufin fluor
C[n+]1ccc(-c2ccncc2)cc1 | -0.3% | i | -13% | 1e-09 | i
COc1ccccc1-n1c(O)c(C=NCCCn2ccnc2)c(=O)[nH]c1=O | . | i | . | 6.3e-09 | i
COc1cccc(-n2c(O)c(C=NCCN3CCOCC3)c(=O)[nH]c2=O)c1 | . | i | . | 3.2e-08 | i
COc1cccc(N2C(=O)CC(=O)NC2=O)c1 | -0.3% | . | 12% | . | .
COc1ccc(C[C@H]2c3cc(OC)c(OC)cc3CCN2C)cc1OC | 0.2%[25.7 µM] | i | 8% | 4.7e-09&7.9e-09 | i
N[C@@H](Cc1c[nH]c2ccccc12)c1nnc(SCc2c(F)cccc2Cl)o1 | 0.4% | i | 19% | 1.9e-08 | i
CC(C)OC(=O)Cc1ccccc1 | 2.1% | . | ? | . | .
Cn1c(=O)n(CC(=O)N2CCC3(CC2)OCCO3)c(=O)c2ccccc21 | -2.5% | i | 1%[11.4 µM] | 1.4e-09 | i
OCCO | 0.2% | . | ? | . | .
O=c1cccc2n1C[C@H]1C[C@@H]2CN(CCO)C1 | . | i | 0% | 2.6e-09 | i
Cc1ccc2c(c1)CC1(CN2C)C(=O)NC(=O)N(C(C)C)C1=O (centres undefined) | 1.0% | i | -6% | 2e-09 | i
CCOC(=O)[C@]1(C#N)[C@@H]2C=CC(C(C)=O)=CN2[C@@H](C(N)=O)[C@@H]1c1ccsc1 | . | i | . | 4.8e-08 | i
CC1=CC[C@@H]2[C@@H](C1)c1c(O)cc(CC#CCCCNS(C)(=O)=O)cc1OC2(C)C | -5.2% | . | 21% | . | .
NCCCN1CCN(c2ccccc2)CC1 | -2.5%[11.5 µM] | i | 14%[11.4 µM] | 3.3e-09 | i
Oc1ccc2c3c1O[C@@H]1[C@@H](O)CC[C@]4(O)[C@H](C2)N(CC2CCC2)CC[C@@]314 | -1.5% | i | 19% | 1e-08 | i
COc1ccccc1N1CCN(C(CNC(=O)Oc2ccccc2)c2cccnc2)CC1 (centres undefined) | -0.4% | i | ? | 3.2e-08 | i
CCOc1ccc(N)cc1 | -1.6% | . | ? | . | .
CSSC | -0.2% | . | ? | . | .
C[C@H]1C(=O)O[C@@H]2CCN3CC=C(COC(=O)[C@@](C)(O)[C@@]1(C)O)[C@H]23 | -0.7%[25.7 µM] | i | -7%[25.6 µM] | 3e-09 | i
N[C@@H](Cc1cc(Br)c(O)c(Br)c1)C(=O)O | -2.0%[11.5 µM] | i | 2%[11.4 µM] | 1e-09 | i
C[C@H]1CC[C@@]2(NC1)O[C@@H]1C[C@H]3[C@@H]4CC[C@@H]5C[C@@H](O)CC[C@@]5(C)[C@@H]4CC[C@]3(C)[C@@H]1[C@@H]2C | 1.5%[25.7 µM] | i | -11%[25.6 µM] | 4.2e-09 | i
C=C1CC[C@@]2(O)[C@H]3Cc4ccc(O)c5c4[C@@]2(CCN3CC2CC2)[C@H]1O5 | . | i | . | 1.5e-09 | i
N[C@@H](Cc1ccccc1)P(=O)(O)O | 2.5%[11.5 µM] | i | -4%[11.4 µM] | 1e-09 | i
O=c1[nH]c(=O)n(CCc2ccc(F)cc2)c(O)c1C=NCCCn1ccnc1 | -1.1% | i | -1% | 1.8e-08 | i
CC1=C(C(=O)OC(C)C)[C@]2(C(=O)N(CC(N)=O)c3ccccc32)C(C#N)=C(N)O1 | . | i | . | 3.3e-08 | i
Cc1ccnc(-n2c(C)nc3ccccc3c2=O)c1 | -2.1% | . | 4% | . | .
CCCCCOC(=O)c1ccccc1C(=O)OCCCCC | 0.5% | . | ? | . | .
COC(=O)CN1CN(c2ccccc2)C2(CCN(Cc3ccc4ccccc4c3)CC2)C1=O | 0.0% | . | 9% | . | .
C[C@H]1CC[C@@]2(NC1)O[C@@H]1C[C@H]3[C@@H]4CC=C5C[C@@H](O)CC[C@]5(C)[C@@H]4CC[C@]3(C)[C@@H]1[C@@H]2C | -0.2%[25.7 µM] | i | 0%[25.6 µM] | 3.7e-09 | i
Cc1c(N=Cc2c(O)n(CCc3ccccc3)c(=O)[nH]c2=O)c(=O)n(-c2ccccc2)n1C | . | i | . | 1.3e-08 | i
CCOC(=O)C1CCN(/C=C2/C(=O)NC(=O)N(Cc3ccco3)C2=O)CC1 | 2.0% | . | 10% | . | .
Nc1ccc(Cl)cc1 | 0.7% | . | -7% | . | .
Cc1cc(S(=O)(=O)NC(C)C)ccc1OCC(=O)N1CCN(Cc2ccc3c(c2)OCO3)CC1 | 0.9% | i | 8% | 2.2e-08 | i
O=C1NC(=O)N(Cc2ccccc2Cl)C(=O)/C1=C/N1CCOCC1 | -0.6% | i | 0% | 1.8e-08 | i
CCCC12CN3CN(C1)CC(CCC)(C3)C2O (centres undefined) | . | i | . | 4e-08 | i
CC(C)CC(C)N (centres undefined) | 3.5% | . | ? | . | .
C=C1[C@@H](O)C2C=CC[C@H](C)C(=O)[C@@](C)(O)C=C[C@@H](OC(C)=O)[C@@]23C(=O)N[C@H](Cc2ccccc2)[C@@H]3[C@@H]1C (some centres undefined) | -1.8% | . | -2% | . | .
CC[C@H]1CN2CC[C@@H]1C[C@H]2[C@@H](O)c1ccnc2ccc(OC)cc12 | -3.8%[25.7 µM] | i | 7%[25.6 µM] | 4e-09 | i
Cc1ccc(CN2C(=O)NC(=O)C3(Cc4c(nc5ccccn5c4=O)N4CCCCCC43)C2=O)cc1 (centres undefined) | -0.9% | i | 12% | 3.4e-08 | i
Cn1c(C(=O)N2CCC3(CC2)OCCO3)cc2c(=O)n(C)c3ccccc3c21 | 3.1% | i | . | 1e-09 | i
c1ccc(CN2CCC3(CCNCC3)CC2)cc1 | -1.4% | i | ? | 1e-09 | i
C[C@]12C/C(=C/O)C(=O)C[C@@H]1CC[C@@H]1[C@@H]2CC[C@@]2(C)[C@H]1CC[C@]2(C)O | -2.4% | . | 2% | . | .
Cc1ccc2nsnc2c1NS(=O)(=O)c1c(C)ccc2nsnc12 | 0.6% | i | ? | 4.7e-08 | i
COC(=O)C1C(c2ccccc2)C2C(=O)c3c(OC)cc(OC)cc3O[C@@]12c1ccc(OC)cc1 (some centres undefined) | 1.8%[11.5 µM] | . | ? | . | .
CC(C)NC(=O)N1CCC2(CC1)CCN(C(=O)Oc1ccccc1)CC2 | -1.4% | i | 2% | 3.1e-09 | i
C[C@@]1([C@@H](NP(=O)(c2ccccc2)c2ccccc2)c2ccccc2)C[C@H]1CCO | 1.5% | . | ? | . | .
CCC(=NC1CC1)c1c(O)n(C2CCCCC2)c(=O)[nH]c1=O | -0.6% | i | . | 1e-09 | i
C=Cn1ccnc1P(=S)(c1ccc(N(C)C)cc1)c1nccn1C=C | -3.8% | i | 4% | 1.8e-08 | i
CC(C)=CCC12CN3CCN(CC(C3)C1=O)C2 | 2.3% | i | 1% | 2.7e-08 | i
CN1[C@H](CC(=O)c2ccccc2)CCC[C@H]1C[C@@H](O)c1ccccc1 | -3.5% | i | 20% | 1e-09 | i
CCN1CCN(P2(=O)C=C(c3ccccc3)OC(c3ccccc3)=C2)CC1 | 1.9% | i | ? | 3.7e-08 | i
C=CCN1C(=O)C2(C(C(=O)OCC)=C(N)Oc3c2c(=O)oc2ccccc32)c2ccccc21 (centres undefined) | -0.1% | i | 1µM* | 6.3e-09 | i
CCCS(=O)(=O)N1CCCC(C(=O)N2CCC3(CC2)OCCO3)C1 (centres undefined) | 0.2% | i | -3% | 2.6e-09 | i
NC(=S)Nc1ccccc1 | 3.7%&1.8% | . | ? | . | .
CC1(C)CC(=O)C=C(NCCN2CCN(C(=O)Cc3ccc(Cl)cc3)CC2)C1 | 0.1% | i | -10% | 2e-09 | i
COc1ccc(N)cc1 | 4.7%&1.0% | . | 2%&3% | . | .
CCN(CC)CCCN=Cc1c(O)n(-c2cccc(C)c2C)c(=O)[nH]c1=O | -1.2% | i | 5% | 7.1e-09 | i
O=C(O)c1nn(Cc2ccc(Cl)cc2Cl)c2ccccc12 | -2.6% | i | ? | 4.4e-08 | i
Cn1c(O)c(C=NCCCN2CCCC2=O)c(=O)n(C)c1=O | -0.4% | i | 1% | 4.6e-09 | i
C=C[C@H]1CN2CC[C@@H]1C[C@H]2[C@@H](O)c1ccnc2ccccc12 | -0.7%&-3.4%[25.7 µM] | i | -13%&-11%[25.6 µM] | 2.6e-09&2.7e-08 | i

Further structures follow:
SMILES | AID923 | A488 fluor | TSHR agonist | A647 autofl | Resorufin fluor
c1csc(CN2CC3(CCNCC3)C2)n1 | 0.3% | i | 16% | 1e-09 | i
CCC(=NCc1cccnc1)c1c(O)n(C2CCCCC2)c(=O)[nH]c1=O | -0.9% | i | 0% | 7.5e-09 | i
CCOCCOC(C)=O | 1.1% | . | ? | . | .
COC1=CC(=O)O[C@@H](/C=C\c2ccccc2)C1 | -0.9%[25.7 µM] | i | -18%[25.6 µM] | 9.4e-09 | i
C[C@H]1CC[C@@]2(NC1)O[C@@H]1C[C@@H]3[C@@H]4CC=C5C[C@@H](O)CC[C@]5(C)[C@@H]4CC[C@]3(C)[C@H]1[C@@H]2C | 2.2%[11.5 µM] | i | -5%[11.4 µM] | 1e-09 | i
O=C(Nc1ccc2c(c1)OCO2)c1cn(Cc2ccc(F)cc2)nn1 | -0.4% | i | -9% | 1e-09 | i
CC(=O)N(C1=NCCCS1)c1ccc(F)cc1 | -0.7% | i | ? | 1.9e-08 | i
CC[C@H](CO)NC(=O)[C@H]1C=C2c3cccc4[nH]cc(c34)C[C@H]2N(C)C1 | . | i | -1% | 1e-09 | i
CNCCc1c[nH]c2ccccc12 | . | i | . | 4.4e-09 | i
NC[C@@H](Cc1ccccc1)P(=O)(O)O | 4.3%[11.5 µM] | i | 2%[11.4 µM] | 1e-09 | i
CCCN(C/C=C\I)[C@@H]1CCc2ccc(O)cc2C1 | -1.0% | . | ? | . | .
N[C@@]1(C(=O)O)CC[C@H](C(=O)O)C1 | 1.7%&-0.7%&-0.1% | . | 2%&-2%&13% | . | .
Cc1ccc(C2SCC(=O)Nc3c2c(=O)[nH]n3C2CCOC(C)(C)C2)cc1 (centres undefined) | 0.8% | i | 1% | 1.3e-08 | i
COC1=CC(=O)OC(CCc2ccccc2)C1 (centres undefined) | 0.0% | . | 4% | . | .
N#Cc1ccc(CN2CC[C@@]3(CCCNC3)C2)cc1 | 1.8% | i | 6% | 1e-09 | i
CCc1cccc2c(C#N)cn(CC(=O)N3CCOCC3)c12 | -3.1% | i | 9% | 1.3e-08 | i
O=C(Oc1nsnc1N1CCOCC1)N(c1ccccc1)c1ccccc1 | 0.5% | i | ? | 1e-09 | i
COc1ccc(OC)c(CN2CCN(C(=O)COc3cccc(C)c3)CC2)c1 | 0.3% | i | 7% | 2.8e-09 | i
OCCBr | 4.7% | . | 1% | . | .
CC(C)OC12Oc3ccccc3C=C1N1CCC2CC1 (centres undefined) | -0.2% | i | 5% | 2.2e-08 | i
CN[C@H](Cc1ccccc1)c1cccc(OC)c1O | 1.5%[11.5 µM] | i | 4%[11.4 µM] | 4.1e-08 | i
COc1cccc(-c2nc(CS(=O)CC(=O)N3CCC4(CC3)OCCO4)c(C)o2)c1 (centres undefined) | 0.3% | i | 2% | 5.8e-09 | i
O=c1ccc(=O)[nH][nH]1 | 4.4% | . | 4% | . | .

Compound profiles (already shown). Order of screens: AID923	A488 fluor	TSHR agonist	A647 autofl	Resorufin fluor
`C=C[C@H]1CN2CC[C@@H]1C[C@H]2[C@@H](O)c1ccnc2ccccc12` as listed: -0.7%&-3.4%[25.7 µM]	i	-13%&-11%[25.6 µM]	2.6e-09&2.7e-08	i
`CCOC(=O)C1CCN(/C=C2/C(=O)NC(=O)N(Cc3ccco3)C2=O)CC1` as listed: 2.0%	.	10%	.	.

Compound activity as filed in PubChem BioAssay.
